From PubChem
LANA-H2A inh: blocks KSHV LANA binding to histone H2A/H2B; Q9QR71; cell-free LANA-H2A/H2B peptide, fluorescence polarization; inhibition, % (no concentration beside the values); 0.6% of 320,000 active; AID 2629; in the data active = inhibition mostly above about 10%, no sharp cut-off; inactive = mostly below about 6.7%;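 note: stock transfer was 7.5 nL into about 10 µL; 0% = median of vehicle wells and 100% = median of positive control wells; one replicate is shown; the record names a cut of 25% in any replicate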
HNF4A DNA FP: change in binding of human HNF4 alpha to DNA; P41235; HNF4a-FITC DNA binding, fluorescence polarization, 1 h; activity change, % at 10 µM; 0.3% of 360,000 active; AID 1224865; in the data active = activity change above about 30%, passing the limit was not always enough;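 note: controls were the assay level and a saturating level of protein; the project sought stronger binding though the title names inhibitors; some compounds called inactive have numbers as strong as hits; positive values seem to mean higher polarization but the record does not say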
UCH37 DUB inh: human UCH37 deubiquitinating enzyme inhibition; inhibition, % (concentration not given with the values); 0.33% of 330,000 active; purified proteasome/UCH37, Ub-AMC cleavage fluorescence; AID 588478;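 active = mean of two replicates above 20%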;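 note: 0% = compound-free wells with enzyme and 100% = wells lacking proteasome; stock transfer was 100 nL into about 20 µL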
Target sequence (Q9Y5K5 whole entry, looked up): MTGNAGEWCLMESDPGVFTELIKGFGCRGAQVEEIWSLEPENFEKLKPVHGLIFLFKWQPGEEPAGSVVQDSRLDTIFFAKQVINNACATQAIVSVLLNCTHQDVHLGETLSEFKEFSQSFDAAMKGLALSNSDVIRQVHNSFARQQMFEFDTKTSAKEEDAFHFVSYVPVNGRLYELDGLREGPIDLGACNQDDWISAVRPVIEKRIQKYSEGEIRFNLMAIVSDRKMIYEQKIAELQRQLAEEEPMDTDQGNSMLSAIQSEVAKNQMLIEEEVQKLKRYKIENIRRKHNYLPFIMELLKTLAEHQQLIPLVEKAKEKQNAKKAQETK
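assay system = human UCH37 enzyme supplied as purified proteasome complex | amount = proteasome at 0.15 nM in the dispensed enzyme solution | schedule = 30 min compound-proteasome preincubation then 25 min substrate reaction, room temperature | measured by = fluorescence, ex 355 nm, em 460 nm | benchmarks = no-proteasome wells (full inhibition) and compound-free wells (no inhibition)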
Bfl-1 A1 inh: inhibitors of the anti-apoptotic protein A1, read as caspase activation | caspase activation, % (concentration not given with the values) | 0.066% of 330,000 active | MEF A1-2A-BIM cells, Caspase-Glo 3/7 luminescence, 3 h; percent of clofoctol response, vehicle zero;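 active = over half of replicate activation scores above 10%, or exactly half above 10 with the replicate mean above 10; inconclusive = replicate mean below 10 yet half the replicates above 10; inactive = over half of replicates below 10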;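 note: wells of about 30 µL received 50 nL stock; many hits fall short of the cut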
Ecoli growth: E. coli growth inhibition; Escherichia coli growth, OD600, 23 h; active compounds read low; OD600 absorbance (test concentration not listed); 0.21% of 330,000 active; AID 1053175;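 active = OD600 absorbance below the run mean of sample wells minus 3.6 SD, in any replicate, cut at about 0.56 in these data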;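 note: stock transfer was 300 nL into about 60 µL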
Beta2AR agonist: agonists of human beta-2 adrenergic receptor inducing internalization; 0.43% of 340,000 active; Am2.2-beta2AR cells, FAP receptor internalization, flow cytometry; reference of the scale not given here; response, % (no concentration beside the values); P07550;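 active = response above a set limit, near 3 SD of response in nonfluorescent compounds, cut at about 42% in these data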;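 note: stock transfer was 100 nL into about 11 µL; a reference agonist was the positive control; negative values mostly stem from fluorescent compounds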
Target sequence (P07550 whole entry, looked up): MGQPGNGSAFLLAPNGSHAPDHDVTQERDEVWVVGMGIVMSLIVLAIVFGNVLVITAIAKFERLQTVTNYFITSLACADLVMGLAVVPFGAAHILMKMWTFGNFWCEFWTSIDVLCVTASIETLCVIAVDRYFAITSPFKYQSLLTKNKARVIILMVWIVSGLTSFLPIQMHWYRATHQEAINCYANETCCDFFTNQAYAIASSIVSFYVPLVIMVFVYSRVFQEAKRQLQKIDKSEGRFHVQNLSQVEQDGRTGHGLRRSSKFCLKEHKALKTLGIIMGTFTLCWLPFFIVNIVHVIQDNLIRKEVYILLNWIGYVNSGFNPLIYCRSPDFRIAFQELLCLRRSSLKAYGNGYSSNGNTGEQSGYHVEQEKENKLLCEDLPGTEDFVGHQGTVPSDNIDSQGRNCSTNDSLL
Vif A3G: inhibitors of Vif binding to APOBEC3G peptide, primary screen, biochemical, TR-FRET, GST-Vif 1-94, biotin-A3G peptide, dose response retest (AID 1117319). TR-FRET GST-Vif / biotin-A3G peptide binding; higher % means a stronger effect; test concentration not given here; strong numbers were not always called active. one-dose inhibition, %; IC50 in µM for titrated hits. 0.57% of 260,000 active;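 active = above the screen mean plus three standard deviations and confirmed in dose response; inconclusive = results disagree or hit not tested in dose response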;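 note: Vif residues 1-94 fused to GST binding biotinylated APOBEC3G peptide 110-148; 0% = full assay without inhibitor and 100% = GST in place of GST-Vif; retest series ran down from 100 µM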
The depositor's hits bear a star; ? = inconclusive; / = not tested or not shown.

SMILES	LANA-H2A inh	HNF4A DNA FP	UCH37 DUB inh	Bfl-1 A1 inh	Ecoli growth	Beta2AR agonist	Vif A3G
c1ccc(-c2nnnn2-c2ccccc2)cc1	-4.4	-0.5	-0.4	1.4	0.726	3.4	/
c1ccc2c(c1)ccc1[nH]c3c(c12)CCCC3	/	1.8	/	/	/	12.1	11.1%
OC(CNC1Cc2ccccc2C1)c1ccccc1 (stereo unspecified)	0.7	-0.9	0.1	0.1	0.706	-10.5	/
CCOC(=O)N1CCN(CCC(=O)Nc2ccc(OC)cc2OC)CC1	0.7	1.9	-0.2	0.6	0.688	-0.3	6.5%
COc1ccc(NC(=O)c2cc(C3CC3)on2)c(OC)c1	4.0	1.0	0.3	-0.7	0.735	3.5	11.9%
Cc1[nH]n(-c2ccccc2)c(=O)c1/C=N/O	7.0	2.8	/	0.1	/	2.6	-0.5%
O=C(Nc1cccnc1)c1cc(-c2ccc(Br)cc2)nc2ccccc12	-0.8	4.2	1.3	1.2	0.665	-2.9	-14.4%
O=C(CCNC(=O)c1ccc(Br)cc1)Nc1ncccc1O	-0.4	0.0	6.2	0.5	0.714	0.1	0.2%
COc1ccc(NC(=O)CSc2nc3ccncc3[nH]2)c(OC)c1	-1.3	-0.5	4.2	-0.1	0.701	-5.4	/
CC(C)(CO)Nc1nc(N2CCCC2)nc(N2CCCC2)n1	-0.9	1.8	1.2	-0.5	0.666	-3.5	-1.4%
CCCCn1c(SCC(=O)NCc2ccco2)nc2ccccc2c1=O	4.3	0.3	3.0	0.1	0.721	-3.8	10.1%
Cn1cc(CN2CCC(n3nccc3NC(=O)CCc3ccccc3)CC2)cn1	-4.0	-7.8	-1.9	1.2	0.742	-0.1	/
CC(C)(C)c1cc(C2=CSC3=NCCN23)cc(C(C)(C)C)c1O	2.2	-0.3	4.1	1.5	0.616	3.7	/
COc1ccc(CCN2CC(C(=O)N(C)CC(=O)Nc3cccc(F)c3)CC2=O)cc1OC (stereo unspecified)	2.5	-4.1	6.2	-0.4	0.697	3.6	/
CCCCN(C(=O)c1ccc(N2C(=O)c3ccccc3C2=O)cc1)c1c(N)n(CC(C)C)c(=O)[nH]c1=O	/	0.3	-0.7	/	0.665	-2.7	1.4%
CC(C)CC(=O)Nc1ccc(S(=O)(=O)Nc2nccs2)cc1	2.8	-0.7	2.2	1.3	0.677	-6.5	/
O=C(OCc1nc2ccccc2[n+]([O-])c1C(=O)c1ccccc1)c1ccco1	-1.1	0.8	6.1	-0.7	0.656	-8.1	?
CN1/C(=C\C(=O)c2oc3ccccc3c2N)C(C)(C)c2ccccc21	0.6	2.0	-6.0	-0.3	0.729	7.0	4.3%
COc1ccc(OC)c(-c2csc(NC(=O)CSCc3c(C)noc3C)n2)c1	-2.4	-2.6	2.5	0.1	0.664	8.2	2.0%
COc1ccc(CNC(=O)Cn2nc(C(F)(F)F)c3c2CCC3)cc1	-2.9	2.9	2.5	0.0	0.719	-2.1	77.4%
O=C(CCC1CCCN(C(=O)c2cccs2)C1)N1CCN(c2ccccn2)CC1 (stereo unspecified)	1.8	1.9	1.3	0.7	0.673	-5.3	/
CCc1noc(C)c1C(=O)Oc1ccc(N(C)S(=O)(=O)c2ccc(C)c(C)c2)cc1	-3.7	2.0	-0.7	0.2	0.697	6.2	-2.4%
O=C(CSc1nncs1)Nc1cccc2ccccc12	/	3.0	4.1	/	0.677	-1.8	4.7%
c1coc(-c2nc3nc4ccccc4n3nc2-c2ccco2)c1	1.1	-10.3	25.1*	-0.9	0.721	2.8	12.3µM*
CCCN(CC(=O)Nc1ccc(F)c(F)c1F)C(=O)c1cc(S(=O)(=O)N(C)C)ccc1N1CCCC1	/	0.9	2.8	/	0.728	1.1	/

Continuation:
SMILES	LANA-H2A inh	HNF4A DNA FP	UCH37 DUB inh	Bfl-1 A1 inh	Ecoli growth	Beta2AR agonist	Vif A3G
COc1ccc(S(=O)(=O)N2c3cc(Cl)ccc3Oc3nc4ccccc4nc32)cc1	4.6	3.5	3.7	0.0	0.786	29.9	4.5%
Cc1cc(N2CCOCC2)nc2ccc(NC(=O)CCC(=O)N3CCN(c4ccccc4)CC3)cc12	0.8	-2.9	-159.6	-0.2	0.667	8.2	/
O=C(COC(=O)CCc1ccc(S(=O)(=O)N2CCOCC2)cc1)Nc1ccccc1OC(F)F	-3.3	-0.7	1.2	-0.1	0.703	-0.4	-0.1%
CC1CC(C)CN(c2ccc(C(=O)NCc3ccc4c(c3)OCO4)cc2[N+](=O)[O-])C1 (stereo unspecified)	-2.4	-2.0	1.3	0.0	0.732	-3.9	-4.5%
COc1nc(N)nc(N)c1NS(=O)(=O)c1ccc(C)cc1	-4.7	2.8	0.3	0.5	0.74	6.3	/
COc1ccc(S(=O)(=O)N(C)C[C@H]2Oc3ccc(NC(=O)Nc4ccccc4)cc3C(=O)N([C@H](C)CO)C[C@@H]2C)cc1	-6.5	2.3	/	0.0	/	2.1	/
COc1cc(/C=C2/SC(=O)NC2=O)ccc1OCc1ccccc1	3.0	-6.0	-3.4	0.6	0.677	21.5	11.2%
COc1ccc(N2C(=O)C3C4C=CC(c5ccccc5)(C3C2=O)C2C(=O)N(c3ccc(OC)cc3)C(=O)C42)cc1 (stereo unspecified)	-0.1	-0.6	3.1	0.0	0.69	5.3	-0.8%
CCC(C)Nc1nc(CN2CCOCC2)nc2sc3c(c12)CCC3 (stereo unspecified)	9.1	1.4	-3.6	1.8	0.68	-1.8	21.2%
COc1ccc(-c2c(C(F)(F)F)nn(C)c2NC(C)=O)cc1	1.3	1.6	5.2	-0.3	0.704	1.0	-7.4%
CCOc1ccc(-c2nnc(N(CC)C(=O)C3CCC3)s2)cc1	-5.5	1.0	-2.0	-0.6	0.685	-8.2	-6.8%
CC(C)CC(=O)NC(=S)Nc1ccccc1N1CCCC1	-0.3	2.5	11.2	-0.5	0.649	-7.0	4.4%
CC(=O)c1cccc(NCC(=O)Nc2cccc(S(=O)(=O)N3CCCCC3)c2)c1	-1.0	-9.2	-8.4	0.8	0.714	2.0	-0.2%
COc1ccc(NC(=O)N(C)C[C@H]2Oc3c(NC(=O)Nc4ccccc4)cccc3C(=O)N([C@H](C)CO)C[C@@H]2C)cc1	-6.0	0.7	-3.1	-0.5	0.769	2.5	/
O=[N+]([O-])c1cc(C(F)(F)F)ccc1NCCOc1ccccc1	2.3	1.5	1.1	-0.8	0.704	-6.2	0.3%
O=C(NCc1ccncc1)c1ccc2nc(Cc3ccccc3F)oc2c1	-13.8	0.8	4.1	-0.8	0.715	2.0	/
CC1=CCC2C(=O)N(c3ccc(OC(=O)c4ccco4)cc3)C(=O)C2C1 (stereo unspecified)	1.0	-0.5	5.6	-0.1	0.71	1.2	1.0%
CCN=C1SC(CC(=O)Nc2sc(C)c(C)c2C(=O)OC)C(=O)N1CC (stereo unspecified)	4.8	-3.5	-6.2	1.4	0.746	1.6	23.8%
COc1ccc(C2c3c(noc3C)CC(C)(O)C2C(C)=O)cc1 (stereo unspecified)	1.8	-1.6	2.8	1.0	0.669	0.6	4.5%
COc1cc(C(=O)NCC(c2cccnc2)N2CCN(c3ccc(F)cc3)CC2)cc(OC)c1OC (stereo unspecified)	-5.7	-3.7	5.4	-0.1	0.699	2.6	-7.2%
O=C(NC1CCCCC1)c1cc(-c2ccccn2)nc2ccccc12	2.0	-0.4	4.9	2.7	0.704	-4.2	/
Cc1ccc(S(=O)(=O)N(C)/N=C/C=C/c2ccccc2)cc1	-4.1	3.2	/	-1.3	/	-5.7	21.2%
Cc1nn(C)c(C)c1S(=O)(=O)N1CCC(C(=O)NC2CCCCCC2)CC1	-2.0	0.6	-0.1	0.3	0.732	-12.1	12.8%
COc1cc(/C=N/Nc2cc(C)nc(NS(=O)(=O)c3ccc(C)cc3)n2)ccc1O	/	2.2	/	/	/	3.0	12.6%
CCOc1ccc(/C(O)=C2/C(=O)C(=O)N(CCN(C)C)C2c2ccccc2)cc1Cl (stereo unspecified)	-0.2	-4.6	6.3	0.4	0.69	3.0	/

Remaining list, next part
SMILES	LANA-H2A inh	HNF4A DNA FP	UCH37 DUB inh	Bfl-1 A1 inh	Ecoli growth	Beta2AR agonist	Vif A3G
O=C(NC(Cc1c[nH]c2ccccc12)c1nnc2n1CCCCC2)c1ccc(Cl)cc1 (stereo unspecified)	-0.9	-0.2	1.3	-0.1	0.695	-6.7	4.8%
Cc1ccc(S(=O)(=O)Cn2nnnc2C(C(C)C)N2CCc3ccccc3C2)cc1 (stereo unspecified)	2.8	2.5	3.5	-0.7	0.642	16.1	?
CCOc1ccc(N(CC(=O)NCc2ccco2)C(=O)CCC(=O)Nc2ccccn2)cc1	/	-1.4	4.2	/	0.672	-6.2	/
CCOC(=O)C1=C(CC)Nc2ccccc2N=C1NC(=O)Cn1cnc2ccccc2c1=O	-1.9	-3.5	3.1	-0.4	0.684	1.6	-6.1%
O=[N+]([O-])c1ccc(S(=O)(=O)Nc2ccc3c(c2)OCCO3)cc1	1.5	-2.1	2.0	0.8	0.656	-0.5	2.3%
CCOc1ccccc1CNc1ncnc2ccc(-c3c(C)noc3C)cc12	2.4	-4.4	/	0.8	/	-2.3	/
Cc1ccc(C)n1-n1c(C)nc2sc3c(c2c1=O)CCCCC3	-0.9	-2.7	-1.1	0.6	0.739	-9.3	22.4%
CC(=O)OCCn1c(=O)c2cc3c(=O)n(CCOC(C)=O)c(=O)c3cc2c1=O	5.9	-2.9	-1.9	0.5	0.716	5.1	-1.7%
CSc1ccc(S(=O)(=O)N2CCC(C(=O)N3CCc4ccccc4C3)CC2)cc1	-1.4	3.0	3.2	0.1	0.681	-6.5	/
CCOC(=O)c1c(NC(=O)CCc2ccc(CC)o2)sc(C)c1C	0.3	-0.8	-2.5	-0.2	0.69	3.8	-2.2%
Cc1nn(Cc2ccccc2)c(N)c1-c1ccccc1	-0.4	1.2	2.8	-1.5	0.753	49.7*	1.6%
Cc1nc2c(nc1C)C(=O)c1ccccc1C2=O	/	2.7	/	/	/	-1.3	-0.1%
O=C(CCNS(=O)(=O)c1cccc2nsnc12)NCc1ccco1	-1.1	1.4	4.5	0.1	0.692	2.1	-5.6%
N#Cc1ccsc1NC(=O)COC(=O)C1=NNC(=O)CC1	2.6	-6.7	4.8	0.1	0.657	8.6	6.5%
Cc1cccc(NC(=O)c2cc(-c3cccnc3)nc3c(C)cccc23)n1	-4.9	9.9	-33.6	0.3	0.734	75.1*	/
[O-][n+]1nc2ccccc2c2ccccc21	/	5.4	-108.6	/	0.588	-14.9	-2.2%
Cc1cccc(OCC(=O)Nc2ccc(C(=O)NCC(C)C)cc2)c1	5.2	2.1	0.8	0.7	0.681	4.0	3.6%
CCOc1cc(S(=O)(=O)NCc2ccccc2)ccc1Br	-1.3	-2.3	-1.4	0.7	0.677	-9.3	-5.8%
O=C(C1CCCN(S(=O)(=O)c2ccc(Br)cc2)C1)N1CCOCC1 (stereo unspecified)	3.3	3.1	-1.4	-0.4	0.711	-0.5	/
CCCCC/C=C/C1=CC(=O)C[C@H](c2ccc(OC)c(OC)c2)C1	-2.6	2.7	0.6	-1.1	/	1.4	/
O=C(CN1CCN(S(=O)(=O)N2CCCCCC2)CC1)Nc1cc(Cl)ccc1Cl	0.9	2.3	0.9	0.5	0.71	-7.6	4.9%
COc1ccccc1N1CCN(CC(O)COc2ccc3c(c2)CCC3)CC1 (stereo unspecified)	2.4	2.4	0.6	0.9	0.616	-1.2	9.9%
Cc1cc(C)nc(Nc2n[nH]c(COc3ccc(Cl)cc3)n2)n1	1.9	0.6	2.8	0.9	0.745	2.9	4.6%
Cc1ccc(C)c(C(=O)COC(=O)CNS(=O)(=O)c2ccccc2)c1	4.2	0.5	4.7	-0.1	0.678	-0.6	/
